# Casp6 inh: inhibitors of human caspase-6; purified caspase-6, Z-VEID-R110 cleavage fluorescence; actives 0.53% (n = 350,000); inhibition, % at 12.5 µM; P55212;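 active = mean inhibition across replicates at least about 35%, with every replicate also reaching that limit, limit read from the data; inconclusive = only one of the two criteria met; inactive = neither criterion met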;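 also: 0% = median of neutral control wells and 100% = no fluorescence left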
# ERp5 block: inhibitors of human ERp5; inhibition, % at 9.99 µM; actives 0.05% (n = 350,000); ERp5 insulin aggregation, absorbance 650 nm, 90 min; Q15084;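 active = mean replicate inhibition above about 25%, with every replicate also reaching it, limit read from the data, passing the limit was not always enough; inconclusive = only one of those two criteria met; inactive = neither criterion met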
# RAD54 inh: blocks human RAD54 Holliday junction branch migration | Q92698 | FAM/BHQ fluorescence | inhibition, % at 10.4 µM | actives 0.14% (n = 360,000) | AID 602329;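 active = mean normalized replicate activity at least 40 and at least half of replicates scoring 40 or more; inconclusive = only one of the two criteria met; inactive = mean below 40 and under half of replicates reaching 40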;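 also: 0% = median of neutral control wells and 100% = median of positive control wells; inhibitors cause a drop in the FAM fluorescence signal; in these data hits start at about 50%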
# esBAF inh: SWI/SNF esBAF complex inhibition; mouse ES cells, Bmi1-luciferase knock-in reporter, 24 h; 100% = twice the neutral-well signal; reporter increase, % at 12.5 µM; actives 2% (n = 350,000); in the data active = activation above about 40%; inconclusive = no clear call, values can overlap the other calls;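 also: 0% = median of the plate's neutral control wells and 100% = double that signal; a rise in the Bmi1 reporter signal indicates esBAF inhibition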
# RAD52 inh: blocks human RAD52 DNA annealing. recombinant RAD52 DNA annealing, FRET fluorescence. inhibition, % at 18.7 µM. actives 0.46% (n = 360,000);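 active = every replicate showing at least 50% inhibition; inconclusive = mean inhibition at least 50% but not in every replicate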
# PglD inh: inhibitors of Campylobacter jejuni PglD acetyltransferase; purified PglD enzyme, DTNB colorimetric CoA detection; inhibition, % at 12.5 µM; actives 0.098% (n = 360,000); in the data active = inhibition above about 16%, passing the limit was not always enough; inconclusive = no clear call, values can overlap the other calls; also: strong numbers were not always called active
# E-sel inducer: E-selectin induction on HUVECs; activation, % at 7.58 µM; actives 0.37% (n = 260,000); HUVEC E-selectin immunofluorescence imaging; normalized: neutral wells 0, TNF-alpha wells 100; AID 686992;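 active = mean E-selectin-positive cell signal at least 10% of the positive control, reached in at least 60% of replicates, without over 20% cell loss; inconclusive = no rule given, readout overlaps actives, possibly toxicity-flagged; inactive = the rest, including those meeting only one limit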;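 also: in these data hits start at about 27%; measured in HUVEC primary endothelial cells; signal is the percent of cells scored E-selectin positive by PE staining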
# Target sequence (P16581 whole entry, looked up): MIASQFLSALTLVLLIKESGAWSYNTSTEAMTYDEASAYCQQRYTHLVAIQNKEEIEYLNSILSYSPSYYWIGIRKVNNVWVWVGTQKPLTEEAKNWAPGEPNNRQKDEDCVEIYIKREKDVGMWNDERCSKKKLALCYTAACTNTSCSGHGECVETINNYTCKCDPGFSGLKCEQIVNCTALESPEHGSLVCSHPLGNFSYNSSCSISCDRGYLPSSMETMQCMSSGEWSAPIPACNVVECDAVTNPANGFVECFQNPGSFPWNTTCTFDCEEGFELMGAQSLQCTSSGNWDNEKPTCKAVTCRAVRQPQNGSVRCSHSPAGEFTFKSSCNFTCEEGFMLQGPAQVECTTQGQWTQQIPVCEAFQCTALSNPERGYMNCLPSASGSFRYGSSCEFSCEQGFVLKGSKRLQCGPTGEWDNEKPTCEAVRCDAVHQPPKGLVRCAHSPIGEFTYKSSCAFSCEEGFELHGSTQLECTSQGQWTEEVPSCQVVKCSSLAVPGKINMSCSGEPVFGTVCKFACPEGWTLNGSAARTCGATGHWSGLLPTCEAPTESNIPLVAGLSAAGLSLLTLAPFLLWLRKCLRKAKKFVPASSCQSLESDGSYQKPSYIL
#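 assay system = HUVEC, human umbilical vein endothelial cells | input = 3,000 HUVEC seeded per well | medium = EGM-2 growth medium on 0.1% gelatin-coated wells | dosing = one compound dose added by pin transfer | signal = immunofluorescence imaging | read-out basis = % PE-positive cells | control set = TNF-alpha, DMSO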
# An asterisk follows results filed as active; ? = inconclusive; / = no result given. A portion of the library; rates above refer to the full screens.
[1] CN(C)c1ccc2c(c1)[C@@H]1C[C@@H](CC(=O)NCc3cc(F)ccc3F)O[C@H](CO)[C@@H]1O2
[2] CC(C)Sc1nc2c(c(=O)n1-c1ccc(F)cc1)SCC2
[3] CCN(CC)c1ccc(C(=S)NCc2ccccc2)cc1
[4] COc1ccc(NC(=O)c2c([N+](=O)[O-])c(C(C)(C)C)nn2C)cc1
[5] O=C(NC1CCC(Oc2ccc(C(=O)O)cc2)CC1)NC12CC3CC(CC(C3)C1)C2 (stereo unspecified)
[6] C[C@@H]1CCCCO[C@@H](CN(C)S(=O)(=O)c2cccs2)[C@H](C)CN([C@H](C)CO)C(=O)c2cc(NS(C)(=O)=O)ccc2O1
entry no. | 1 | 2 | 3 | 4 | 5 | 6
Casp6 inh | -1 | / | -2 | -4 | 5 | 0
ERp5 block | -3 | / | 5 | 5 | 0 | -17
RAD54 inh | ? | -5 | / | -6 | 2 | 0
esBAF inh | -11 | 3 | 1 | / | 7 | -1
RAD52 inh | -11 | / | -10 | 4 | -9 | -5
PglD inh | 4 | -3 | / | 3 | 4 | 1
E-sel inducer | -0.8 | / | 0.5 | 0.0 | 0.1 | 0.1

# 3 entries already listed, sorted by the value under PglD inh, descending.
no. | SMILES | Casp6 inh | ERp5 block | esBAF inh | RAD52 inh | PglD inh
4 | COc1ccc(NC(=O)c2c([N+](=O)[O-])c(C(C)(C)C)nn2C)cc1 | -4 | 5 | / | 4 | 3
6 | C[C@@H]1CCCCO[C@@H](CN(C)S(=O)(=O)c2cccs2)[C@H](C)CN([C@H](C)CO)C(=O)c2cc(NS(C)(=O)=O)ccc2O1 | 0 | -17 | -1 | -5 | 1
2 | CC(C)Sc1nc2c(c(=O)n1-c1ccc(F)cc1)SCC2 | / | / | 3 | / | -3

# Retrieved by structure from the entries so far, three records:
[4] COc1ccc(NC(=O)c2c([N+](=O)[O-])c(C(C)(C)C)nn2C)cc1
[3] CCN(CC)c1ccc(C(=S)NCc2ccccc2)cc1
[5] O=C(NC1CCC(Oc2ccc(C(=O)O)cc2)CC1)NC12CC3CC(CC(C3)C1)C2 (stereo unspecified)
entry no. | 4 | 3 | 5
Casp6 inh | -4 | -2 | 5
ERp5 block | 5 | 5 | 0
RAD54 inh | -6 | / | 2
esBAF inh | / | 1 | 7
RAD52 inh | 4 | -10 | -9
PglD inh | 3 | / | 4
E-sel inducer | 0.0 | 0.5 | 0.1

# Screening results as filed in PubChem BioAssay.
